Bioassay records: PubChem BioAssay, several laboratories
PrP UTR inh: suppresses PrP 5' UTR mRNA reporter expression. 0.35% of 340,000 active. inhibition, % (test concentration not listed). cell-based PrP 5' UTR mRNA reporter, plate reader;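 active = every replicate at 50% or more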;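 note: 0 = median of the neutral control wells; tested in H4 reporter cells; numbers are from one replicate; inactives centre near -14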
RN4220 kill: S. aureus RN4220 growth inhibition; OD600, 16 h; inhibition, % (concentration not given with the values); 0.33% of 330,000 active; AID 1259311;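 active = z-score of -3 or lower and OD600 up to 0.18 on both plates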;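 note: plate controls were untreated cells for no effect and reference antibiotic for full effect; stock transfer was 100 nL into about 80 µL; one replicate is shown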
ugtP null kill: compounds lethal to S. aureus RN4220 ugtP deletion mutant. OD600 growth, 16 h; some inactives read as strong as hits. growth inhibition, % (concentration not given with the values). 0.54% of 330,000 active. AID 1259309;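 active = z-score under -3 and OD600 up to 0.15 on both plates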;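 note: plate controls were untreated wells for no effect and antibiotic for full effect; wells of about 80 µL received 100 nL stock; the first replicate is given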
Mtb hypoxia inh: inhibitors of hypoxia-regulated fluorescent reporter in Mycobacterium tuberculosis. M. tuberculosis hypoxia-regulated fluorescent reporter, fluorescence. fluorescence inhibition, % (concentration not given with the values). 0.1% of 300,000 active. AID 1159583;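 active = 35 to 45% if threefold the growth effect, above 45% if 1.5-fold the growth effect; inactive = the rest, general growth blockers included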;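 note: wells of about 50 µL received 100 nL stock; 0% = vehicle wells and 100% = reference inhibitor wells; whole bacteria with a GFP reporter of the hypoxia response; strong numbers were not always called active; many hits fall short of the cut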
Bead autofluor: counter-screen for toxin protease inhibitors: compound fluorescence; fluorescence intensity (concentration not given with the values); 3.1% of 360,000 active; compound autofluorescence counterscreen, microsphere flow cytometry; active compounds read high;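 active = at least 3 SD above the mean of all compounds, about 16000 in these data; inconclusive = too few beads counted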;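 note: 100 nL of 1 mM stock went into each well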
BJeLR viability: BJeLR cell viability loss. BJeLR (HRASV12) viability, CellTiter-Glo ATP luminescence, 48 h; reference of the scale not given here. inhibition, % (no concentration beside the values). 0.17% of 300,000 active. AID 1554;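 active = replicate mean above 50%; inconclusive = above 50% but judged a plate artefact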;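 note: 50 nL library stock added to about 25 µL; numbers are from one replicate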
Mtb hypoxia inh growth: second read-out of Mtb hypoxia inh, no call of its own (marks repeat the call); growth inhibition, %; measured here: M. tuberculosis growth (absorbance);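 0% = vehicle and 100% = reference antibiotic; read after six days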
Active calls of the source: *; ? = inconclusive; . = no result given.

Molecule | PrP UTR inh | RN4220 kill | ugtP null kill | Mtb hypoxia inh | Mtb hypoxia inh growth | Bead autofluor | BJeLR viability
N/C(=N\OC(=O)c1cnn(-c2ccccc2)c1C(F)(F)F)c1cc(C(F)(F)F)cc(C(F)(F)F)c1 | -22 | 6.4 | 5 | -6 | -5 | 4377 | -4
COc1cc(C=NNC(=O)C2(O)c3ccccc3-c3ccccc32)ccc1O | . | 0.9 | -4 | 3 | 3 | . | .
COCC1CCN(C(=O)c2ccc(OC)c(OC3CCN(C(C)C)CC3)c2)CC1 | -9 | -1.1 | 1 | 8 | 5 | 5853 | 1
Cc1nc(C)c(C(=O)NNS(=O)(=O)c2ccccc2)s1 | -13 | 2.4 | 4 | 1 | -1 | 2173 | 2
C=CCSc1ncccc1C(=O)NCc1ccccc1 | 0 | 1.3 | 8 | 9 | 0 | 21460* | -10
C=CCc1ccccc1OCCn1nnc2ccccc21 | -18 | 4.3 | 1 | -1 | 5 | 3631 | 4
O=c1cc(N/N=C/c2ccccc2)[nH]c(=O)[nH]1 | -13 | . | . | . | . | 3749 | 19
COc1ccc(C(=O)NC(=S)NNC(=O)c2ccncc2)cc1Br | . | 34 | 6 | 8 | 4 | . | .
CC(C)(O)c1cc(=O)sc2nc3ccccc3n12 | -74 | 6.5 | -9 | 1 | 14 | 9514 | 12
CN(C)S(=O)(=O)c1ccc(NC(=O)C2CC(=O)N(Cc3ccccc3Cl)C2)cc1 (stereo not drawn) | -10 | 4.9 | 0 | 7 | 3 | ? | 0
OCC1CCN(Cc2nc(Cc3ccccc3Cl)no2)CC1 | -17 | 3.4 | 4 | 11 | -4 | 2663 | -1
CC(C)CC(=O)NC(c1cccs1)c1ccc2cccnc2c1O (stereo not drawn) | -8 | 21 | 8 | 6 | -2 | 4498 | 16
Cc1nc([N+](=O)[O-])cn1CC(=O)c1ccc(OC(F)(F)F)cc1 | -24 | -2.9 | -1 | -6 | -8 | 3544 | -4
O=C(NC(=S)Nc1ccc(N2CCCC2)cc1)c1ccccc1[N+](=O)[O-] | -21 | 1.1 | 7 | -1 | 0 | 1967 | 8
CNC(=O)C1CC(=O)N(Cc2ccc3c(c2)OCO3)C(=Nc2ccc(F)cc2)S1 (stereo not drawn) | -15 | -2.6 | -11 | 1 | 7 | 9399 | 1
N#Cc1ccccc1OCC(=O)N1CCN(S(=O)(=O)c2ccc(Cl)cc2)CC1 | -19 | 8.3 | 4 | 3 | 2 | 4070 | .
Cn1cccc1/C=C1/C(=O)NC(=S)N(Cc2ccc(F)cc2)C1=O | -5 | 5.9 | 2 | 11 | 1 | 4533 | 29
CCCNC(=O)C1CCC(CNS(=O)(=O)c2ccc3c(c2)CC(C)N3C(C)=O)CC1 (stereo not drawn) | -5 | 5.5 | 1 | -7 | -4 | 4868 | 0
O=S(=O)(c1ccccc1)C1(C2CC(c3ccccc3)=NO2)CC(O)C1 (stereo not drawn) | -10 | 3.7 | 2 | 11 | 18 | 3468 | -12
CC(OC(=O)c1ccco1)C(=O)NCc1ccc2c(c1)OCO2 (stereo not drawn) | -7 | . | . | . | . | 3907 | -7
CC(C)(C)c1ccc(NC(=O)COC(=O)c2ccc(CN3CCCC3=O)cc2)cc1 | -1 | 6.3 | -5 | 0 | -2 | 4430 | .
Cc1ccc(CNC(=O)COC(=O)Cc2ccc(-c3ccccc3)cc2)cc1 | -21 | 4.5 | -8 | 6 | 4 | 8572 | 2
Cc1cc(C)nc(Nc2ccc(C)c([N+](=O)[O-])c2)n1 | -37 | 4.3 | -7 | 3 | -3 | 4050 | 5
CSCC(NS(=O)(=O)c1ccc(C)cc1)C(=O)O (stereo not drawn) | -21 | 2.3 | 1 | 2 | 2 | 4880 | -4
Brc1ccc(-c2nc3ncccn3c2NC2CCCCC2)o1 | -1 | -1.8 | -10 | 2 | 3 | 10320 | -1
CCN(CC)Cc1cc(NC2=NS(=O)(=O)c3ccccc32)ccc1OC(=O)C(C)C | -9 | -4.4 | 3 | 4 | 7 | 4095 | -2
Cc1ccc(C(=O)NNc2ncnc3c2cnn3C)cc1 | -18 | 3.8 | 4 | 13 | -2 | 5216 | -8
CC(=O)Nc1c(C(=O)C2CC2)oc2ccccc12 | -4 | -1.8 | -5 | -2 | 0 | 11001 | -4
CCC(SC1=NCCS1)C(=O)Nc1ccc(S(N)(=O)=O)cc1 (stereo not drawn) | -20 | -0.1 | 11 | 10 | 8 | 10706 | -1
CCNc1nc(Cl)nc(NCCOc2ccc(C)cc2)n1 | 0 | 5.8 | -9 | 6 | 3 | 9346 | -8

5 structures from above, arranged by count of non-hydrogen atoms, high to low.
Molecule | PrP UTR inh | RN4220 kill | ugtP null kill | Mtb hypoxia inh | Mtb hypoxia inh growth | Bead autofluor | BJeLR viability
CN(C)S(=O)(=O)c1ccc(NC(=O)C2CC(=O)N(Cc3ccccc3Cl)C2)cc1 (stereo not drawn) | -10 | 4.9 | 0 | 7 | 3 | ? | 0
O=C(NC(=S)Nc1ccc(N2CCCC2)cc1)c1ccccc1[N+](=O)[O-] | -21 | 1.1 | 7 | -1 | 0 | 1967 | 8
Cn1cccc1/C=C1/C(=O)NC(=S)N(Cc2ccc(F)cc2)C1=O | -5 | 5.9 | 2 | 11 | 1 | 4533 | 29
C=CCc1ccccc1OCCn1nnc2ccccc21 | -18 | 4.3 | 1 | -1 | 5 | 3631 | 4
C=CCSc1ncccc1C(=O)NCc1ccccc1 | 0 | 1.3 | 8 | 9 | 0 | 21460* | -10

(listing goes on)
Molecule | PrP UTR inh | RN4220 kill | ugtP null kill | Mtb hypoxia inh | Mtb hypoxia inh growth | Bead autofluor | BJeLR viability
COc1ccccc1C1OCC(C)(C)CO1 | -9 | 2.7 | 6 | 13 | 9 | 3736 | .
COc1ccc2c(c1OC)C(=O)N(c1nccs1)C2 | -30 | -12 | -6 | 22 | 11 | 3246 | -5
O=[N+]([O-])c1cc(/C=N/OCc2c(Cl)cccc2Cl)ccc1N1CCOCC1 | -8 | . | . | . | . | 22744* | 8
COC(=O)c1c(NC(=O)CSc2nnc(-c3ccco3)n2Cc2ccccc2)sc(C)c1C | -8 | 1.0 | -9 | . | . | 2622 | -5
CCN(CC)C(=O)c1ccc(COc2ccc(Cl)c(C)c2)o1 | -31 | . | . | . | . | 3843 | -2
CCc1ccc(N2CC(C(=O)Nc3ccccc3F)CC2=O)cc1 (stereo not drawn) | -4 | 4.8 | -1 | 3 | 6 | 11284 | .

Rewritten as labelled records: entries from further up
CCN(CC)C(=O)c1ccc(COc2ccc(Cl)c(C)c2)o1
  PrP UTR inh: -31	RN4220 kill: .	ugtP null kill: .	Mtb hypoxia inh: .	Mtb hypoxia inh growth: .	Bead autofluor: 3843	BJeLR viability: -2

CCc1ccc(N2CC(C(=O)Nc3ccccc3F)CC2=O)cc1 (stereo not drawn)
  PrP UTR inh: -4	RN4220 kill: 4.8	ugtP null kill: -1	Mtb hypoxia inh: 3	Mtb hypoxia inh growth: 6	Bead autofluor: 11284	BJeLR viability: .

Three entries from above in another layout.
Cc1ccc(C(=O)NNc2ncnc3c2cnn3C)cc1
  PrP UTR inh = -18 | RN4220 kill = 3.8 | ugtP null kill = 4 | Mtb hypoxia inh = 13 | Mtb hypoxia inh growth = -2 | Bead autofluor = 5216 | BJeLR viability = -8

O=S(=O)(c1ccccc1)C1(C2CC(c3ccccc3)=NO2)CC(O)C1 (stereo not drawn)
  PrP UTR inh = -10 | RN4220 kill = 3.7 | ugtP null kill = 2 | Mtb hypoxia inh = 11 | Mtb hypoxia inh growth = 18 | Bead autofluor = 3468 | BJeLR viability = -12

CC(C)(C)c1ccc(NC(=O)COC(=O)c2ccc(CN3CCCC3=O)cc2)cc1
  PrP UTR inh = -1 | RN4220 kill = 6.3 | ugtP null kill = -5 | Mtb hypoxia inh = 0 | Mtb hypoxia inh growth = -2 | Bead autofluor = 4430 | BJeLR viability = .
